GIV-Gai inh: GIV-Galpha-i interaction inhibition. 210,000 compounds, 0.42% hits. Galpha-i3/FITC-GIV peptide fluorescence polarization, 90 min; hits give low values; scaled: aluminum fluoride 0%, vehicle 100%. AID 1224905. percent of control (FP), % (test concentration not listed). P08753;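 active means replicate mean at 85% of control or lower, very high polarization wells dropped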;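 further: wells of about 15 µL received 100 nL stock; the first replicate is given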
Target sequence (P08753 whole entry, looked up): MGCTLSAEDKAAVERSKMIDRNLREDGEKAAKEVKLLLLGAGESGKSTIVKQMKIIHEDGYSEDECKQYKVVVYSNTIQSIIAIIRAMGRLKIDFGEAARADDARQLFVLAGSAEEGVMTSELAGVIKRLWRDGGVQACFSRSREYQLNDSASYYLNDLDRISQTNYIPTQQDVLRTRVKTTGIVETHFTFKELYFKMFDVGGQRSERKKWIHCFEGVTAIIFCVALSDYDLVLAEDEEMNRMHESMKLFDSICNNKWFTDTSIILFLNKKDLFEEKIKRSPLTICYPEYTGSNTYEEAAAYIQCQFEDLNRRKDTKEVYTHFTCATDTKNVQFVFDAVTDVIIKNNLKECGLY
HCMV UL50-53 inh: disrupts HCMV UL50-UL53 complex binding | HTRF UL50-UL53 interaction, normalized percent inhibition | inhibition, % (concentration not given with the values) | 190,000 compounds, 0.15% hits;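 active means both replicates at 50% or more, plus weaker picks with an unusually low signal ratio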;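 further: stock transfer was 100 nL into about 20 µL; 0% = negative control wells and 100% = wells with untagged competitor protein; inactives centre near -12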
Sa growth inh: inhibitors of Staphylococcus aureus growth at 42 °C; relative growth, % (concentration not given with the values); AID 720641; S. aureus RN4220 growth, OD600, 20 h; hits give low values; 170,000 compounds, 0.53% hits;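 active means growth at 42 °C up to 50% and 20 or more points under that at 30 °C, or under 10% at both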;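 further: 300 nL library stock went into each well; scaled to the means of positive and negative controls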
Sa growth inh second temp: second read-out of Sa growth inh, no call of its own (marks repeat the call); relative growth, %; measured here: growth at 30 °C;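 optical density after 20 h as mean of two plates; 100% = untreated growth and lower means inhibition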
Active calls of the source: *; x = no result given; & = joins results of further samples.

SMILES | GIV-Gai inh | HCMV UL50-53 inh | Sa growth inh | Sa growth inh second temp
O=[N+]([O-])c1ccc(O)c(N=Cc2sc3ccccc3c2O)c1 | 100 | -31 | x | x
Cc1nnc(SCC(=O)NCc2ccc(F)cc2)n(N)c1=O | 98 | -10 | 95 | 89
O=C(NCc1cn2ccsc2n1)c1ccccc1C(F)(F)F | 106 | x | 90 | 75
Cc1ccc([N+](=O)[O-])c2c1NC(c1cccc([N+](=O)[O-])c1)C1CC=CC21 (configuration not stated) | 104 | -15 | x | x
CCCC1CCC(c2ccc(OC(=O)c3cccs3)cc2)CC1 (configuration not stated) | 99 | x | 114 | 96
O=C(CSc1ccccn1)Nc1cccc(F)c1 | 100 | -5 | 96 | 75
COc1ccc(-c2cc(C)no2)cc1S(=O)(=O)NC(C)C | 103 | x | 97 | 87
CCN(CC)S(=O)(=O)c1ccc(C(=O)C(C#N)c2nc3ccccc3c(=O)[nH]2)cc1 (configuration not stated) | x | -39 | 86 | 79
O=C(NCc1ccccc1F)C1CC(=O)N(Cc2ccco2)C1 (configuration not stated) | x | -27 | 90 | 91
Cc1ccc(NC(=O)CN2C(=O)CC(c3ccc(F)cc3)=Nc3ccccc32)cc1F | 98 | x | 88 | 98
O=C1CC(c2ccco2)CC(O)=C1C=NCCN1CCNCC1 (configuration not stated) | 89 | -3 | 108 | 114
O=c1nc(SCc2ccc(F)cc2)c2c(n1CC1CCCO1)CCC2 (configuration not stated) | 105 | -24 | x | x
O=S(=O)(Cc1ccc(Br)cc1F)c1cccs1 | 101 | -27 | 94 | 88
CC(C)c1cc(-c2nc(-c3cccc(Cl)c3)no2)n[nH]1 | 105 | x | 105 | 102
Clc1ccc(Cc2nc3nc4c(c(N5CCN(c6ccccn6)CC5)n3n2)CCCC4)cc1 | 106 | 11 | x | x

Taken from above:
O=C(NCc1cn2ccsc2n1)c1ccccc1C(F)(F)F in Sa growth inh reads 90
O=[N+]([O-])c1ccc(O)c(N=Cc2sc3ccccc3c2O)c1 in GIV-Gai inh reads 100
O=C(NCc1ccccc1F)C1CC(=O)N(Cc2ccco2)C1 (configuration not stated) in Sa growth inh second temp reads 91
Clc1ccc(Cc2nc3nc4c(c(N5CCN(c6ccccn6)CC5)n3n2)CCCC4)cc1 in GIV-Gai inh reads 106
CCN(CC)S(=O)(=O)c1ccc(C(=O)C(C#N)c2nc3ccccc3c(=O)[nH]2)cc1 (configuration not stated) in HCMV UL50-53 inh reads -39
COc1ccc(-c2cc(C)no2)cc1S(=O)(=O)NC(C)C in GIV-Gai inh reads 103

The list goes on.
SMILES | GIV-Gai inh | HCMV UL50-53 inh | Sa growth inh | Sa growth inh second temp
CCOc1ccc(NC(=O)C(=O)NCc2ccco2)cc1 | 109 | -27 | 106 | 88
CCOC(C)n1cccc1-c1ccccc1 (configuration not stated) | x | 0 | 83 | 92
Cc1ccc(NC(=O)C(NCCCN2CCCC2=O)c2ccccc2)cc1 (configuration not stated) | x | -23 | 87 | 88
Clc1ccc2c(c1)nc1n2CCN(Cc2ccccc2)C1 | 100 | -16 | x | x
COc1cccc(C2Nc3ccccc3-n3c(-c4ccccc4)c4c(=O)n(C)c(=O)n(C)c4c32)c1OC (configuration not stated) | 101 | -10 | x | x
O=C(NCCCSc1ccccn1)Nc1ncccn1 | 104 | -25 | 90 | 87
O=c1c(Cl)c(NCCc2ccccc2)cnn1-c1nc2ccccc2o1 | 100 | -4 | 116 | 99
O=C(C1CCC1)N1CCc2cc(S(=O)(=O)NCc3ccc(F)cc3)ccc21 | 104 | -19 | 109 | 91
O=C(O)CCC(=O)Nc1nc2n(n1)C(c1ccc(Cl)cc1)C=C(c1ccccc1)N2 (configuration not stated) | 63* | -75 | x | x
Cc1ccccc1S(=O)(=O)Cc1ccc(C(=O)NCCc2ccccc2)o1 | 109 | 9 | 107 | 84
CCCc1nc(C(C)(C)O)c(C(=O)OCc2oc(=O)oc2C)n1Cc1ccc(-c2ccccc2-c2nn[nH]n2)cc1 | 100 | -39&-39&-13 | 95&89 | 88&90
CC(=O)N1CCN(C(=S)c2ccc(-c3cccc(Cl)c3Cl)o2)CC1 | 108 | -47 | 88 | 40
COc1ccc(S(=O)(=O)NCC(c2ccco2)N2CCN(c3ccccc3F)CC2)cc1OC (configuration not stated) | 97 | x | 111 | 78
CC(C)NC(=O)c1ccc2c(=O)[nH]c3c(C(=O)NC(C)C)sc(=S)n3c2c1 | 114 | x | 102 | 91
Clc1cccc(C(Nc2ccc(Br)cc2)c2nnc(-c3ccccc3)o2)c1 (configuration not stated) | 103 | -19 | x | x
COc1cccc2c1Oc1ncccc1NC2 | 109 | -6 | 105 | 89
COc1ccc2nc3oc(C(=O)Nc4cc(Cl)c(OC)cc4OC)cc3cc2c1 | 96 | -28 | 85 | 85
COc1ccc(Cn2c(=O)c3cccnc3n(CC(=O)Nc3ccccc3OC)c2=O)cc1 | 96 | -18 | 95 | 88
O=C(Nc1cccc(C(F)(F)F)c1)C1CCN(S(=O)(=O)c2cccs2)CC1 | 107 | 2 | 100 | 82
O=C(Nc1ccc(N2CCOCC2)cc1)OCc1ccccc1 | 107 | -4 | 95 | 101
NC(=O)N/N=c1/oc2ccccc2cc1-c1nc2ccccc2[nH]1 | 126 | -16 | 97 | 75
O=C(CN(c1cccc([N+](=O)[O-])c1)S(=O)(=O)c1ccccc1)NCCSCc1ccccc1Cl | 103 | 0 | x | x
CCOC(=O)c1c(C)[nH]c(C)c1S(=O)(=O)N1CCC(C(=O)N2CCN(c3cccc(C)c3C)CC2)CC1 | 105 | x | 118 | 88
CCC(C)(C(=O)Nc1ccc2c(c1)OCCO2)N(C(C)=O)c1ccc(C(N)=O)cc1 (configuration not stated) | 96 | -19 | 88 | 88
CCCCn1c(SCC(=O)NCc2ccc(C)cc2)nc2ccsc2c1=O | 104 | 1 | 103 | 85
CC(=O)Nc1ccc2c(c1)C(C)(C)C(C)N2C (configuration not stated) | x | 24 | 94 | 105
O=C(Nc1ccc(Br)cc1F)N1CCC(c2nc(-c3ccc(Cl)cc3)no2)CC1 | 103 | -20 | x | x
CCc1c(C)[nH]c(C)c1C(=O)OC | 107 | -16 | 90 | 87
Cc1ccc(NC(=O)Cn2cc(C(=O)c3ccccc3)c(=O)c3ccccc32)cc1 | 98 | 19 | x | x
O=C(CSc1nnc(-c2ccccc2F)o1)Nc1cccc(C(F)(F)F)c1 | 98 | 2 | 99 | 74
Cn1c(SCc2ccc(F)cc2)nc2ccc(C(=O)NCc3ccc(F)cc3)cc21 | 97 | -29 | 105 | 85
COc1ccc(C)cc1NC(=O)c1c2c(nc3ccccc13)C(=O)N(C1CCCCC1)C2 | 99 | x | 92 | 91
O=C(NCCC1=CCCCC1)C1CCN(c2ccc(N3CCOCC3)nn2)CC1 | 101 | -24 | x | x
O=C(c1cccc(CN2CCN(Cc3ccccc3)CC2)c1)N1CCC(O)CC1 | 106 | -1 | 109 | 88
Cc1ccccc1S(=O)Cc1ccc(C(=O)N2CCN(c3cccc(C)c3C)CC2)o1 (configuration not stated) | 106 | x | 90 | 39
COc1ccc(OC)c(NC(=O)c2nc(SCc3ccccc3F)ncc2Cl)c1 | 105 | 4 | 106 | 96
CC(NC(=O)CCc1ccc(-n2cnc3cccnc32)cc1)c1ccccc1 (configuration not stated) | 126 | 9 | x | x
CCn1c(SCC(=O)NC2CCCCC2)nnc1C(CO)NC(=O)c1ccccc1 (configuration not stated) | 103 | -5 | 105 | 94
O=C(CSc1nc2cc(Cl)ccc2o1)NC1CC1 | x | 17 | 99 | 102
CC(C)(C)C1(OCSC#N)C(=O)N=CN=CN1Cc1ccccc1 (configuration not stated) | x | 3 | 97 | 91
CC(C)(C)n1nnc(-c2ccccc2)n1 | x | -9 | 104 | 81
N#Cc1c(S/C=C(\O)c2cc3ccccc3o2)nc2c(c1C(F)(F)F)CCCC2 | 116 | -28 | 88 | 86
C#CCOc1ccc2c(c1)c(C(=O)OCC)c(C)n2-c1ccccc1 | 100 | -19 | x | x
Cc1nnn(C23CC4CC(CC(C(=O)NCc5ccc6c(c5)OCO6)(C4)C2)C3)n1 | 105 | -12 | 86 | 87
Cc1ccc(Cn2c(SCc3ccc(C(=O)O)cc3)nc3cccnc32)cc1 | 100 | -34 | 102 | 88

Laid out differently: two of the compounds above
Molecule	GIV-Gai inh	HCMV UL50-53 inh	Sa growth inh	Sa growth inh second temp
Clc1cccc(C(Nc2ccc(Br)cc2)c2nnc(-c3ccccc3)o2)c1 (configuration not stated)	103	-19	x	x
COc1cccc2c1Oc1ncccc1NC2	109	-6	105	89

The results go on.
SMILES | GIV-Gai inh | HCMV UL50-53 inh | Sa growth inh | Sa growth inh second temp
Cc1cc(C)c(NC(=O)Cn2c(SCC(=O)NCc3ccccc3)nc3ccccc32)c(C)c1 | 101 | x | 93 | 86
C(=Nc1ccccc1)c1ccc(N2CCOCC2)cc1 | 101 | -13 | 101 | 89
Cc1ccc(-c2cn3c(n2)sc2cc(C(=O)N4CCCCC4)ccc23)cc1 | 104 | x | 100 | 74
CC(Nc1ncnc2c1oc1ccccc12)c1ccccc1 (configuration not stated) | x | -6 | 82 | 90
Cc1ccc(-c2nnc(Nc3ccc(Br)cc3)c3ccccc23)cc1S(=O)(=O)N1CCCCC1 | 105 | -17 | 103 | 84
N#Cc1nc(-c2ccc(Cl)cc2)oc1N1CCCC1 | x | -18 | 77 | 82
O=C(NCCCN1CCN(c2ccccc2F)CC1)c1sc2ncccc2c1-n1cccc1 | 105 | x | 88 | 76
c1ccc(C[n+]2ccc(-c3nc4ccccc4s3)cc2)cc1 | 104 | x | 87 | 79
CC(=O)N1CCN(c2ccc(NC(=O)COc3ccc(Cl)c(C)c3)cc2)CC1 | 100 | -15 | 89 | 73
CCOc1ccc(NS(=O)(=O)c2cc3c(cc2Cl)NC(=O)CO3)cc1 | 101 | x | 99 | 80
N#Cc1c(N)sn(-c2ccccc2)c1=S | x | -64 | 90 | 96
CCCN1CCN(CCCNC(=O)Cn2nc(C)n3c(cc4c(OC)cccc43)c2=O)CC1 | 103 | -19 | 118 | 83
C=CCNc1nc2c(c(=O)[nH]c(=O)n2C)n1C | 101 | -12 | 109 | 87
Cn1c2ccc(Br)cc2c2nc3ccccc3nc21 | 110 | -12 | x | x
CCS(=O)(=O)Nc1cccc(C2=NN(S(=O)(=O)CC)C(c3ccccc3)C2)c1 (configuration not stated) | 191 | x | 89 | 83
CCOC(=O)c1cc2c(=O)n3ccccc3nc2n(C(C)C)c1=NC(C)=O | 101 | x | 96 | 95
COc1cccc(CN2C(=O)C3(SCC(=O)N3c3cc(C)cc(C)c3)c3ccccc32)c1 (configuration not stated) | 102 | x | 107 | 93
CCCSc1nc2c(c(=O)[nH]1)C(c1sccc1C)C(C(=O)OC)=C(C)N2 (configuration not stated) | 99 | -28 | x | x
CN(C)CCNC(=O)Cn1cnc2ccccc2c1=O | x | -18 | 80 | 89
O=C(c1cccc(Cl)c1)N1CCN(c2cc(=O)n3nc(-c4ccccc4)sc3n2)CC1 | 101 | -7 | x | x
C=CCSc1nnc(NC(=O)NC2CCCCC2)s1 | 101 | -41 | 101 | 84
CC(=O)Nc1ccc(NC(=O)CN(C)S(=O)(=O)c2ccc3c(c2)CCC(=O)N3)cc1 | 101 | 1 | 86 | 87
COc1cccc(-n2c(=S)sc3c(=O)n(-c4ccccc4)c(SCC4OCCO4)nc32)c1 | 102 | x | 94 | 85
COc1ccccc1C(C1=C(O)COC1=O)c1cc2c(cc1O)OCO2 (configuration not stated) | x | -1 | 117 | 88
CCC(N)Cn1nnn(-c2ccccc2)c1=O (configuration not stated) | 100 | 8 | 101 | 97
CC1CCN(CCCNC(=O)c2cc(-c3ccccn3)nc3ccccc23)CC1 | 107 | -32 | x | x
CC1=C(C(=O)Nc2ccccc2)C(c2cccc(Br)c2)n2ncnc2N1 (configuration not stated) | 100 | 6 | x | x
CSc1ccc(CNC(=O)C2CCN(c3nnc(-n4cccc4CNc4ccc(C)cc4)s3)CC2)cc1 | 97 | 4 | 106 | 88
O=C(O)CCN1CCc2ccccc2C1c1ccncc1 (configuration not stated) | 98 | -25 | 99 | 94
CCc1cccc(NC(=O)C2CCN(Cc3cnn(-c4ccccc4)c3-n3cccc3)CC2)c1 | 104 | x | 122 | 46
CCCC(=O)Nc1c(C)nc(Nc2ccc(OC)cc2)nc1Nc1ccc(OC)cc1 | 97 | 4 | x | x
CC(c1ccccc1)n1cnc2c(oc3ccccc32)c1=O (configuration not stated) | 103 | -1 | 106 | 83

Sorted by heavy-atom count (falling): part of the list above
SMILES | GIV-Gai inh | HCMV UL50-53 inh | Sa growth inh | Sa growth inh second temp
CC(=O)Nc1ccc(NC(=O)CN(C)S(=O)(=O)c2ccc3c(c2)CCC(=O)N3)cc1 | 101 | 1 | 86 | 87
CCOC(=O)c1cc2c(=O)n3ccccc3nc2n(C(C)C)c1=NC(C)=O | 101 | x | 96 | 95
COc1ccccc1C(C1=C(O)COC1=O)c1cc2c(cc1O)OCO2 (configuration not stated) | x | -1 | 117 | 88
